# High-throughput results deposited in PubChem BioAssay by Johns Hopkins Ion Channel Center.
# KCNQ2 block: KCNQ2 potassium channel inhibitors, primary screen, cell-based, CHO-K1, FluxOR thallium flux, B-score (AID 2156) | Potassium voltage-gated channel subfamily KQT member 2 (Rattus norvegicus), O88943 | 20 min; active compounds read low; only compounds with negative scores are shown here; some inactives read as strong as hits | B-score at 10 µM | 310,000 tested, 1.1% active;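 active means fluorescence ratio B-score at most minus 3 library SDs, with starting brightness B-score within 2 library SDs, cut at about -5.5 in these data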
# Target sequence (O88943 whole entry, looked up): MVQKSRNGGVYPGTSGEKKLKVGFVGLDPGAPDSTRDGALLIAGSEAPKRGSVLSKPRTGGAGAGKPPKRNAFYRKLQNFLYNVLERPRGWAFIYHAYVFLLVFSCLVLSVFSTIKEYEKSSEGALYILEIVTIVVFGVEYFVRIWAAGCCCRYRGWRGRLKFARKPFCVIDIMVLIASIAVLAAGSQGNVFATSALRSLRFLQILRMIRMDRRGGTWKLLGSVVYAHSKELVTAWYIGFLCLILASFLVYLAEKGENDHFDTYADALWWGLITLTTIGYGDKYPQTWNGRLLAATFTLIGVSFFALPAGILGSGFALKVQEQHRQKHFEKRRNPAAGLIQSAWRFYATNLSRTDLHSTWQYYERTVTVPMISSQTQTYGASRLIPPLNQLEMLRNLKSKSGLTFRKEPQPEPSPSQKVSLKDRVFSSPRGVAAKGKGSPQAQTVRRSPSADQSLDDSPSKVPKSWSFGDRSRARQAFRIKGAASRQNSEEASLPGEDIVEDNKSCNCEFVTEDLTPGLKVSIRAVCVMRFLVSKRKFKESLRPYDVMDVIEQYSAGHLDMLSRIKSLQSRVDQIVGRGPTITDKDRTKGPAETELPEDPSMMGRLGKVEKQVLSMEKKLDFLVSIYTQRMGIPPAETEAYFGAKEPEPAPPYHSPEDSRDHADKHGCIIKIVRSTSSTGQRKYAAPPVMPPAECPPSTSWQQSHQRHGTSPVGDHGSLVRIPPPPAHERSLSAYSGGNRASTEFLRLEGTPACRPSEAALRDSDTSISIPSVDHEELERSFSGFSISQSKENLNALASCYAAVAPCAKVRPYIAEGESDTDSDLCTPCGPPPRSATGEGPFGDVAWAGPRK
# KCNQ2 block baseline: further read-out of KCNQ2 block, marked with its call; B-score; measured here: initial fluorescence intensity artifact check;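 brightness before thallium and not channel activity; 0 = typical well and far values either way flag optical interference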
# * = called active by the depositor; i = inactive. This is a subset; count on the stated rates, not on these rows.
KCNQ2 block	KCNQ2 block baseline	SMILES
i	2.5	CCOc1ccc(N2CC(C(=O)NC3CCCCCC3)CC2=O)cc1 (configuration not stated)
i	2.8	Cc1ccccc1OCCCCCn1ccnc1
i	-0.51	O=C1NC(=S)N/C1=C/c1ccc2c(c1)OCO2
i	3.3	Cc1c(Cl)cccc1NC(=S)Nn1cnnc1
i	-1.8	CC1=C(C(=O)OCCC#N)C(c2cc3c(cc2Br)OCO3)NC(=O)N1 (configuration not stated)
i	-0.29	COc1cc2[nH]c(=S)n(Cc3ccc(C)o3)c(=O)c2cc1OC
i	-0.44	CCN(CC(=O)Nc1c(F)cccc1F)C(=O)CCc1c[nH]c2ccccc12
i	1.8	O=C(NCc1cc(C(F)(F)F)ccc1F)C1CCC(=O)N(C2CC2)C1 (configuration not stated)
i	-1.1	C=CCc1c(C)nc(SCC(=C)C)[nH]c1=O
i	-0.28	Cc1nn(-c2ccc(Cl)cc2)c(Cl)c1/C=C(\C#N)C(N)=O
i	0.85	O=C(O)/C=C/c1ccc(S(=O)(=O)Nc2ccc3[nH]c(=O)[nH]c3c2)cc1
i	0.04	Cc1ccc(-n2nc3c(=O)n(CC(=O)NCCCc4ccccc4)nc(C)c3c2C)cc1
i	-0.05	OC(CCc1cccc(Cl)c1)c1cccs1 (configuration not stated)
i	-0.88	N=c1sccn1CC(=O)Nc1ccc(SC(F)F)cc1
i	-1.8	COc1ccc(/C=N/N2C(=O)C3C4C=CC(CC4)C3C2=O)c(OC)c1 (configuration not stated)
i	2.4	Cc1ccc(S(=O)(=O)N2CCOCC2)cc1NC(=O)COC(=O)CSc1ccc(Br)cc1C
i	-1.4	CCOC(=O)NN1C(=O)c2ccccc2NC1c1ccccn1 (configuration not stated)
i	-0.88	O=C(c1cc([N+](=O)[O-])ccc1Cl)N1c2ccccc2Sc2ccccc21
i	-1.6	O=C(COC(=O)Cn1nnc2ccccc21)Nc1ccccc1Br
i	-1.7	Cc1ccc(-c2ccc(/C=N\n3cnnc3)o2)c(Br)c1
i	0.32	Cc1ccc(SCC(=O)N2CCN(c3ccccn3)CC2)cc1
i	0.04	CCN(CCO)C(=S)Nc1cc(S(=O)(=O)N(C)C)ccc1C
i	-2.4	Nc1ccn([C@H]2C[C@H](O)[C@@H](CO)O2)c(=O)n1
i	-0.98	COc1ccc(C(CC(=O)N2CCCC2)c2c(OC)cc(OC)c3c(-c4ccccc4)cc(=O)oc23)cc1 (configuration not stated)
i	0.82	Cc1c(NC(=O)C(C)OC(=O)CNC(=O)c2ccc(C(C)(C)C)cc2)c(=O)n(-c2ccccc2)n1C (configuration not stated)
i	-0.61	O=C(c1c(F)cccc1F)N1CCN(CCOc2ccccc2)CC1
i	0.84	CC(C)CC1CC(=O)OC1(C)C(=O)CSc1nc2ccccc2s1 (configuration not stated)
i	3.6	Cn1cccc1/C=C1\Cc2ccccc2C1=O
i	0.91	COc1ccc(S(=O)(=O)NCC2CCC(C(=O)NCC(OC)OC)CC2)cc1 (configuration not stated)
i	1.9	Cc1cc(C)cc(C(=O)NCC(=O)NCc2ccc(S(N)(=O)=O)cc2)c1
i	0.79	CC(C)(C)c1ccc(OCC(O)CN2CCc3ccccc3C2)cc1 (configuration not stated)
i	0.1	CC1C(=O)CCN(C(C)(C)C)C1C (configuration not stated)
i	-2.5	O=C(NCC1COc2ccccc2O1)C1C2C=CC3(CN(Cc4ccccc4Cl)C(=O)C13)O2 (configuration not stated)
i	0.67	Cc1cc(C)n(-c2nc3ccccc3nc2N2CCN(S(=O)(=O)c3cccc(C#N)c3)CC2)n1
i	-0.42	CSCCC(C(=O)OC1CCOC1=O)N1C(=O)c2ccccc2C1=O (configuration not stated)
i	0.16	CCCCn1c(N)c(N(CCOC)C(=O)COC(=O)C(C)(C)Oc2ccc(Cl)cc2)c(=O)[nH]c1=O
i	-1.1	COc1ccccc1C1CCN(C(=O)c2cccc([N+](=O)[O-])c2)CC1
i	1.7	Cc1cc(-n2c(C)cc(C(=S)N3CCOCC3)c2C)ccc1Br
i	1.3	O=C/C=C/c1coc2ccc3ccccc3c2c1=O
i	0.01	C/C(CCN1CCCCc2nc(C)c(C)cc21)=N\O[C@H](C)c1cn([C@H](CO)Cc2ccccc2)nn1
i	-0.67	Cc1ccc(-c2nc3c(c(=O)c4ccccc4n3C)c(=O)n2-c2ccc(F)cc2)cc1
i	0.79	Cc1cc(C)nc(Sc2nc(Cl)nc(N(c3ccccc3)c3ccccc3)n2)n1
i	-0.02	C=CCOC(=O)C1=C[C@@H](c2csc3ccccc23)[C@H](CCCO)[C@@H](OCC)O1
i	-1.8	O=NN(CCc1ccncc1)c1ccc(OCc2ccccc2)cc1
i	1.1	O=C1c2ccccc2-c2c1nc1c([n+]2[O-])CCCC1
i	-0.02	Cc1c(C#N)c(NC(=O)c2cccc(Cl)c2)n(Cc2ccccc2)c1C
i	-0.32	Cc1sc2ncnc(NCC(C)(C)N3CCOCC3)c2c1C
i	0.1	O=C(COc1ccccc1)Nc1nc(-c2ccncc2)cs1
i	-0.52	Cc1nc2ccc(Br)cn2c1C(=O)N/N=C\c1ccccc1[N+](=O)[O-]
i	2.9	Cn1c(-c2cnn(-c3ccccc3)c2N)n[nH]c1=S
i	0.01	CCc1c(C)nc2c(Br)cccc2c1SCCC#N
i	0.02	Cc1cc(C)n(-c2ccc(C(=O)Nc3ccccn3)cc2)n1
i	0.07	O=C1c2cnc3nc(SCc4ccccc4)nn3c2CC2c3ccccc3CCN12 (configuration not stated)
i	-0.53	Cn1c(Cn2cnc(Cl)c2Cl)nc2ccccc21
i	-0.26	O=C(Nc1sccc1C(=O)NCc1ccco1)c1cccnc1
i	-1.6	CCOC(=O)N1CCC(NC(=O)c2cccn3c(=O)c4cc(Br)ccc4nc23)CC1
i	3.8	O=C1OC(N2CCN(Cc3ccccc3)CC2)c2ccccc21 (configuration not stated)
i	-0.83	COc1ccc(CCN(C)C(=S)Nc2cccc(C)c2)cc1OC
i	1.6	CCOc1ccc(/C=N/NC(=O)C(O)c2ccccc2)c(O)c1 (configuration not stated)
i	1.3	S=C(Nc1ccc(Cl)c(Cl)c1)N1CCN(c2ccccn2)CC1

# Following part
KCNQ2 block	KCNQ2 block baseline	SMILES
i	-1.2	O=c1oc2ccccc2c(Nc2ccc3ccccc3c2)c1[N+](=O)[O-]
i	-0.06	COc1cc2c(cc1NC(=O)C(C)Sc1ccc(C)cc1)oc1ccccc12 (configuration not stated)
i	0.64	CCn1nnnc1SCC(=O)NC1Cc2ccccc2C1
i	0.19	Cc1nn(-c2ccccc2)c(C)c1/C=N/NC(=O)c1cc(-c2cccs2)[nH]n1
i	-1.3	CN(C)c1ccc(NC(=O)CCCCCn2nnc3ccccc3c2=O)cc1
i	0.18	O=C(CCn1c(=S)[nH]c2ccccc2c1=O)NCCSCc1ccccc1
i	0.72	O=C(Nc1ccc(C(=O)O)cc1)/C(=C\c1ccc(F)cc1)NC(=O)c1ccco1
i	-0.31	CC(=O)c1ccc(S(=O)(=O)N2CCC3(CC2)OCCO3)cc1
i	0.02	Cc1nn(Cc2ccc(C(=O)Nc3ccccc3C(F)(F)F)o2)c(C)c1Br
i	1.1	O=C(c1ccc(Cn2c(=O)[nH]c3ccccc3c2=O)cc1)N1CCN(c2ccc(Cl)cc2)CC1
i	-0.74	CC(=O)Nc1ccc(N2CCN(Cc3ccccc3F)CC2)cc1
i	0.03	COCCn1c(SCC(=O)Nc2ccc(Cl)c(S(=O)(=O)N(C)C)c2)nc2ccccc21

# Reformatted with two lines to a compound: 15 of the compounds above.
# Values run as follows: KCNQ2 block	KCNQ2 block baseline
CCOc1ccc(N2CC(C(=O)NC3CCCCCC3)CC2=O)cc1 (configuration not stated)
    i	2.5
Cc1ccccc1OCCCCCn1ccnc1
    i	2.8
O=C1NC(=S)N/C1=C/c1ccc2c(c1)OCO2
    i	-0.51
Cc1c(Cl)cccc1NC(=S)Nn1cnnc1
    i	3.3
CC1=C(C(=O)OCCC#N)C(c2cc3c(cc2Br)OCO3)NC(=O)N1 (configuration not stated)
    i	-1.8
COc1cc2[nH]c(=S)n(Cc3ccc(C)o3)c(=O)c2cc1OC
    i	-0.29
CCN(CC(=O)Nc1c(F)cccc1F)C(=O)CCc1c[nH]c2ccccc12
    i	-0.44
O=C(NCc1cc(C(F)(F)F)ccc1F)C1CCC(=O)N(C2CC2)C1 (configuration not stated)
    i	1.8
C=CCc1c(C)nc(SCC(=C)C)[nH]c1=O
    i	-1.1
Cc1nn(-c2ccc(Cl)cc2)c(Cl)c1/C=C(\C#N)C(N)=O
    i	-0.28
O=C(O)/C=C/c1ccc(S(=O)(=O)Nc2ccc3[nH]c(=O)[nH]c3c2)cc1
    i	0.85
Cc1ccc(-n2nc3c(=O)n(CC(=O)NCCCc4ccccc4)nc(C)c3c2C)cc1
    i	0.04
OC(CCc1cccc(Cl)c1)c1cccs1 (configuration not stated)
    i	-0.05
N=c1sccn1CC(=O)Nc1ccc(SC(F)F)cc1
    i	-0.88
COc1ccc(/C=N/N2C(=O)C3C4C=CC(CC4)C3C2=O)c(OC)c1 (configuration not stated)
    i	-1.8

# Further results follow.
KCNQ2 block	KCNQ2 block baseline	SMILES
i	0.04	CC(C)(C)OC(=O)N[C@@H](COCc1ccccc1)C(=O)N[C@@H](CO)[C@H](O)[C@@H]1C[C@@H]1C(=O)NC1CCCCC1
i	-0.98	Oc1ccc2[nH]ccc2c1
i	0.27	Cc1cc(C)nc(SCC(=O)N/N=C/c2cccc([N+](=O)[O-])c2)n1
i	1.9	NC(=O)Cn1cnc2c(nnn2-c2ccc(F)cc2)c1=O
i	-1.3	COc1ccc(NC(=O)CN(C)C(=O)Cc2ccsc2)cc1
i	0.22	CCCCc1nnc(NC(=O)C=C(C)C)s1
i	0.57	Cc1ccc(C(=O)C2=C(O)C(=O)N(Cc3cccnc3)C2c2ccc(Br)cc2)o1 (configuration not stated)
i	-0.71	O=C(COc1ccc2c(-c3ccccc3)cc(=O)oc2c1)NCCN1CCOCC1
i	0.16	COc1cccc(CC(NC(C)=O)C(=O)NC2CCN(S(=O)(=O)c3ccc(F)cc3)CC2)c1OC (configuration not stated)
i	0.45	CCOc1cc(C2C3=C(CC(C)(C)CC3=O)N(CCOC)C3=C2C(=O)CC(C)(C)C3)ccc1OC
i	-1.3	Cc1cccc(N2CCN(C(=O)CSc3nc4ccccc4nc3N3CC(C)OC(C)C3)CC2)c1C (configuration not stated)
i	0.86	Cc1ccc(C)c2c1[nH]c1ccccc12
i	1.1	CCCCC(O)(CCCC)C(=O)NN(C(=O)c1cccnc1Cl)c1ccccc1
i	-3.3	O=C(COc1c(CO)cc(Br)cc1CO)NC1CCCc2ccccc21 (configuration not stated)
i	-0.86	Cc1c(NS(=O)(=O)c2ccc(NC(=O)CCC(=O)O)cc2)c(=O)n(-c2ccccc2)n1C
i	-0.97	Cc1ccc(SC(CC(=O)c2ccc(F)cc2)C(=O)O)cc1 (configuration not stated)
i	0.41	O=C(Cn1cccc1C(=O)c1ccccc1)NCc1ccco1
i	-0.84	COc1cccc(NC(=O)COc2cc(C)cc3oc(=O)cc(C)c23)c1
i	0.11	COc1ccc(C(=O)N2CCCC(Nc3ccc(C)c(C)c3)C2)c(OC)n1 (configuration not stated)
i	0.25	Cc1cc(C(=O)NC2CCCCC2)c2cc(F)ccc2n1
i	0.88	CCOc1ccc(C(=O)NC2CCCCCCC2)cc1
i	-0.03	O=C(O)COc1ccccc1C(Nc1cccnc1)c1cc(Cl)c2cccnc2c1O (configuration not stated)
i	0.08	O=C(Cc1ccccc1)N/N=C/c1ccc[nH]1
i	-0.32	CCOc1ccccc1NC(=O)C(=O)N/N=C/c1cc(Br)ccc1O
i	-0.04	COc1cc(/C=C2/CC/C(=C/c3ccc(O)c(OC)c3)C2=O)ccc1O
i	0.62	COc1ccc(C(=O)CSc2nnc(CN3CCCCC3)n2-c2ccc(Cl)cc2)cc1OC
i	0.03	COc1ccccc1CC(NC(C)=O)C(=O)NC1CCN(S(=O)(=O)c2ccc(NC(C)=O)cc2)CC1 (configuration not stated)
i	-0.4	Cc1ccc(COc2cccc3c2CCN(Cc2ccc(F)cc2)C3=O)cc1
i	0.19	O=C1[C@H]2[C@@H](c3ccc(F)cc3)N3C(=O)N(c4ccccc4)C(=O)[C@@]3(Cc3ccc(Cl)cc3)[C@H]2C(=O)N1C1CCCCC1
i	-0.43	Cc1cc2cc(CCNC(=O)c3ccc(Br)o3)c(=O)[nH]c2cc1C
i	-2.7	c1ccc(-n2nnnc2-n2ccnc2)cc1
i	-0.32	CCOc1ccc(NC(=O)C2CCCN(S(=O)(=O)c3c(C)noc3C)C2)cc1 (configuration not stated)
i	4.2	Cc1ccc(C(=O)NC(=S)Nc2ccc(-c3ccc(CO)o3)cc2)cc1
i	2.3	CC1=C(C)CC(C(=O)Nc2ccc(C(=O)N3CCOCC3)cc2)C(C(=O)O)C1 (configuration not stated)
-5.8*	-0.19*	Cc1ccc(Cl)cc1N1CCN(C(=S)NCCc2ccccc2)CC1
i	-0.53	COc1ccccc1CNC(=O)c1ccc(OC(C)C)cc1
i	0.6	CC1CN(C(=O)NCc2ccccc2)c2cc(Cl)ccc2O1 (configuration not stated)
i	0.09	CCc1ccc(N2C(=O)Nc3ccc(Br)cc3C2(O)C(=O)NCCN(C)C)cc1 (configuration not stated)
i	-0.24	COC(=O)c1cc2ccsc2n1CC(=O)N1CCCc2ccccc21
i	-3.6	Cc1noc(C)c1CSCC(=O)N(C)CC(=O)Nc1ccccc1Cl
i	0.02	CN(CC(=O)NCc1cccnc1)S(=O)(=O)c1ccc2c(c1)c(=O)n(C)c(=O)n2C
i	-1.3	CC(=O)c1ccc(N2CCN(C(C)C(=O)NC3CCCc4ccccc43)CC2)cc1 (configuration not stated)
